# Screening data as filed in PubChem BioAssay.
# fixLJ activator: increases Burkholderia fixLJ two-component signaling. B. multivorans fixK-promoter GFP reporter, 18 h; stronger effect = higher value. z-score (test concentration not listed). actives 0.3% (n = 29,000);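 active = replicate mean overnight rise in green fluorescent reporter signal, 3 or more SD over negative controls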;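 also: score is relative to vehicle wells of the plate; 300 nL library stock went into each well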
# * = called active by the depositor; & = joins results of further samples. An excerpt, so the mix of outcomes need not match the whole.
SMILES,fixLJ activator
Cc1ccc2c(=O)cc(C(=O)Nc3c(C)n(C)n(-c4ccccc4)c3=O)oc2c1C,-0.82
CCC(NC(=O)N1CC(Oc2c(C)cccc2C)C1)C(=O)O (stereo not drawn),-0.24
CNC(=O)c1noc(CN(C)Cc2nc3ccccc3n2C)n1,0.44
O=C(c1ccc2c(c1)N(Cc1ccccc1F)C(=O)c1ccccc1S2(=O)=O)N1CCCCC1,-1.5
Cc1cccc(C)c1Nc1c(-c2ccsc2)nc2ccccn12,0.64
COc1ccc(C2C(C(=O)Nc3cccnc3)=C(C)Nc3nc(SCc4ccccc4)nn32)cc1 (stereo not drawn),-1.2
CCc1cc(C(=O)Nc2cnn(Cc3ccc(F)cc3)c2)no1,-2.8
O=C(Cn1c(=O)n(-c2ccc(Cl)cc2)c(=O)c2c3c(sc21)CCCCC3)Nc1cccc(Cl)c1,-1.9
CC1(C(=O)NCc2ccc3c(c2)CCO3)CC12CCNCC2 (stereo not drawn),0.09
O=C(NCc1cc2n(n1)CCN(C(=O)C1CCC1)C2)N1CCC(CO)CC1,0.53
CCCCN1C(C(=O)c2ccccc2)=C(OC(C)=O)c2ccccc2S1(=O)=O,-3.7
COc1cccc(-n2c(=O)c3c(C)c(C)sc3n(CC(=O)NCc3ccccc3)c2=O)c1,-2
COC(=O)c1ccccc1C(=O)N1CCNC(=O)C1Cc1ccccc1 (stereo not drawn),-0.57
Cc1ccc(NC(=O)C(Cc2c[nH]c3ccccc23)NC(=O)OC(C)(C)C)c(C)c1 (stereo not drawn),-2.6
Cc1scc(CCNC(=O)C2CCCN2S(C)(=O)=O)c1C (stereo not drawn),-0.86
O=C(Nc1ccc2c(c1)OCO2)c1cc(-c2ccc(Cl)cc2)on1,-1.7
COC(=O)c1ccc(NC(=O)CSc2nc3cc4ccccc4cc3[nH]2)cc1,0.28
CCN(C(=O)Cn1c(C(=O)OC)cc2sccc21)c1cccc(C)c1,-1.9
N#Cc1ccccc1C(=O)N1CCC(OCc2ccccn2)CC1,-0.1
CCCCSCc1cc(C(=O)N2CCC(c3nncn3C)CC2)oc1C,1.6
Cc1ccc2oc(=O)n(CCC(=O)N(C)C3CCSCC3)c2c1,0.01
O=C(Nc1ccc2oc(-c3ccc4ccccc4c3)nc2c1)c1ccc(Cl)c(Cl)c1,0.41
COc1ccccc1CCC(=O)N1CCn2nc(C(O)c3ccccc3)cc2C1 (stereo not drawn),-1.2
CCc1ccc(-c2ccc(C(=O)Oc3ccc(Br)cc3)cc2)nc1,0.24
CC(C)(C)C(=O)N1CC2COc3ccccc3C[C@@]2(C(=O)O)C1 (stereo partly drawn),-1.9
CC(=O)OCC(CCn1cnc2cnc(N)nc21)COC(C)=O,-1.6&-0.35
COCCN1C(=O)c2[nH]nc(-c3ccccc3O)c2C1c1ccc(Cl)c(Cl)c1 (stereo not drawn),0.81
Cc1ccc(C)c(NC(=O)c2cc(=O)c3cc(C)cc(C)c3o2)c1,-0.53
Cc1ccc(OCc2nc3ccccc3n2CCOc2ccc(Cl)cc2)cc1,-1.2
CCOc1cc(Cl)c(S(=O)(=O)n2ccnc2)cc1Cl,-0.42

# Single values from the entries so far.
# fixLJ activator, Cc1ccc(OCc2nc3ccccc3n2CCOc2ccc(Cl)cc2)cc1 → -1.2
# fixLJ activator, Cc1ccc2oc(=O)n(CCC(=O)N(C)C3CCSCC3)c2c1 → 0.01

# Later entries.
SMILES,fixLJ activator
O=C(Nc1ccc(F)cc1F)c1noc2c1CCc1ccccc1-2,-0.69
O=C(Cc1[nH]nc2ccccc12)NCc1noc(C2CCCO2)n1 (stereo not drawn),-1.7
COc1ccc(-n2nc3ccc(NC(=O)c4c(OC)cccc4OC)cc3n2)cc1,0.04
Cc1ccc(NC(=O)Cn2c(=O)n(CCCCC(=O)NCc3ccccc3Cl)c(=O)c3ccccc32)cc1C,0.29
Cc1cc(C(=O)NCCC2CCCCN2S(C)(=O)=O)c2ccc(F)cc2n1 (stereo not drawn),-1.2
O=C(NCC1CCCN(S(=O)(=O)c2ccc(F)cc2)C1)c1ccon1 (stereo not drawn),-0.48
N#Cc1cc2c(nc1SCC(=O)Nc1cccc(F)c1)C1CCN2CC1,-1.7
O=C(CN1CCN(Cc2ccc(F)cc2Cl)C1=O)NCCc1ccc(Cl)cc1,-2
COc1ccc(Cl)cc1NC(=O)Cn1nc(Cc2ccncc2)c2ccccc2c1=O,0.12
Cc1ccc(Cl)cc1N1CCN(C(=O)c2cn(C)c3ccc(S(=O)(=O)N4CCCCC4)cc3c2=O)CC1,0.56
O=C(NCc1ccc(Cl)cc1)c1ccc(NC(=O)N2CC3CCCN3c3ccccc32)cc1 (stereo not drawn),-1.1
COc1ccc(Nc2nc(N)nc(CSc3nc4ccccc4s3)n2)cc1,-1.4
O=C1COc2ccc(-c3cc(-c4ccccc4)c4c(n3)-c3cc(Cl)ccc3OC4)cc2N1,0.54
O=C(NCC1CCCN(Cc2ccco2)C1)c1cn2ccsc2n1 (stereo not drawn),0.31
COc1ccc(C2CC(=O)c3cc(-c4nc(-c5cccc([N+](=O)[O-])c5)cs4)c(=O)n(-c4ccccc4)c3C2)cc1 (stereo not drawn),1.1
O=c1c2c3c(sc2n(Cc2cc(=O)n4ccccc4n2)c(=O)n1-c1ccc(Cl)cc1)CCC3,0.6
Cc1onc(-c2ccccc2Cl)c1C(=O)Oc1ccc(Br)cc1,0.1
CCn1ncc(S(=O)(=O)N2CCCN(c3nc4ccccc4s3)CC2)c1C,0.58
COc1ccc(CCC(=O)N2CC[C@@]3(C(=O)O)CCCN(C)[C@H]3C2)cc1,-0.19
O=C(Nc1ccccc1CN1CCOCC1)c1cc2sccc2[nH]1,-0.14
CC1CCC(NC(=O)N(CCCl)N=O)CC1 (stereo not drawn),0.24
Cc1ccc(-c2csc(=Nc3ccccc3)n2CCCO)cc1,0.52
CCOc1ccc(NC(=O)CN2C(=O)CC(C)Sc3ccccc32)cc1 (stereo not drawn),-0.21
CCOc1cc(C(=O)Nc2ccc3oc(-c4ccc(CC)cc4)nc3c2)cc(OCC)c1OCC,-0.29
COc1cccc(CN2c3ccccc3-c3nc(SCC(=O)Nc4ccccc4Cl)ncc3S2(=O)=O)c1,-0.85
CCc1cc2c(cc3c(=O)n(CC(=O)N4CCC(C)CC4)nc(CC)n32)s1,-0.72
O=C(NCC1(O)CCNC1)c1ccccc1OCc1ccccc1 (stereo not drawn),0.13
CCOc1ccc(NC(=O)c2c(NC(=O)Cc3ccccc3)sc3c2CCC(C)C3)cc1 (stereo not drawn),-1.2
CNCC(=O)N1CCC2(CC1)OCCc1cc(OC)c(OC)cc12,1
CC(C)(C)c1ccc(C(O)CCCN2CCC(C(O)(c3ccccc3)c3ccccc3)CC2)cc1 (stereo not drawn),-0.8&0.1

# Part of the list above in order of length of the SMILES, rising.
SMILES,fixLJ activator
CC1CCC(NC(=O)N(CCCl)N=O)CC1 (stereo not drawn),0.24
O=C(NCC1(O)CCNC1)c1ccccc1OCc1ccccc1 (stereo not drawn),0.13
O=C(NCC1CCCN(Cc2ccco2)C1)c1cn2ccsc2n1 (stereo not drawn),0.31
O=C(Nc1ccccc1CN1CCOCC1)c1cc2sccc2[nH]1,-0.14
Cc1onc(-c2ccccc2Cl)c1C(=O)Oc1ccc(Br)cc1,0.1
CCOc1ccc(NC(=O)CN2C(=O)CC(C)Sc3ccccc32)cc1 (stereo not drawn),-0.21
CCn1ncc(S(=O)(=O)N2CCCN(c3nc4ccccc4s3)CC2)c1C,0.58
CCc1cc2c(cc3c(=O)n(CC(=O)N4CCC(C)CC4)nc(CC)n32)s1,-0.72
CCOc1ccc(NC(=O)c2c(NC(=O)Cc3ccccc3)sc3c2CCC(C)C3)cc1 (stereo not drawn),-1.2
CCOc1cc(C(=O)Nc2ccc3oc(-c4ccc(CC)cc4)nc3c2)cc(OCC)c1OCC,-0.29
CC(C)(C)c1ccc(C(O)CCCN2CCC(C(O)(c3ccccc3)c3ccccc3)CC2)cc1 (stereo not drawn),-0.8&0.1
O=c1c2c3c(sc2n(Cc2cc(=O)n4ccccc4n2)c(=O)n1-c1ccc(Cl)cc1)CCC3,0.6
COc1ccc(C2CC(=O)c3cc(-c4nc(-c5cccc([N+](=O)[O-])c5)cs4)c(=O)n(-c4ccccc4)c3C2)cc1 (stereo not drawn),1.1

# Next entries.
SMILES,fixLJ activator
Cc1cc2nc(-c3ccc(OCc4ccccc4F)cc3)cc(C(F)(F)F)n2n1,-0.57
CCOc1ccc(NC(=O)C2CCN(c3nnc(-n4c(C)ccc4C)s3)CC2)cc1,-1.6
COc1cccc(OC)c1Cn1nnc2c(=O)[nH]c(C3CCN(C(=O)c4ccccc4)CC3)nc21,0.62
NC(=O)c1ccc(OC2COCCC2NC(=O)C2CC2)cc1 (stereo not drawn),-0.37
CC(NC(=O)CN1C(=O)NC(C)(C)C1=O)c1cn2ncsc2n1 (stereo not drawn),0.65
O=S(=O)(c1ccc(Cl)cc1)c1nc(-c2cccs2)oc1SCc1ccc(F)cc1,-1.7
Cc1[nH]cnc1CN1CCC2(CC1)OCCc1c2[nH]c2ccccc12,0.08
Cn1cc(C(=O)N2CCN(c3cccc(C(F)(F)F)c3)CC2)c2c3ccccc3n(C)c2c1=O,-3.8
CCn1nc(C)c(CNC(=O)C2CCN(C(=O)C3CCCO3)CC2)c1C (stereo not drawn),0.4
CCOC(=O)c1cc(-c2ccc(C)cc2)n(CC(=O)Nc2cccc(C(C)=O)c2)c1C,1.1
Cc1[nH]nc(-c2ccc(S(=O)(=O)N3CC[C@@]4(C(=O)O)CCCN(C)[C@@H]4C3)o2)c1C,0.17
COC1CCN(C(=O)Cn2ccc(C3CCCNC3)n2)CC1 (stereo not drawn),-1.4
COc1ccc(-n2cc(CN(CCO)C(C)C)c(-c3cccc(F)c3)n2)cc1,0.22
CNc1ccnc(-c2ccc(C(=O)NCCCc3scnc3C)cc2)n1,-2
Cc1nc(C)c(C(=O)NC2CCCN(C(=O)c3ccco3)C2)o1 (stereo not drawn),-0.12
CC(Oc1ccc(Br)cc1)C(=O)Nc1ncn[nH]1 (stereo not drawn),-0.83
CCCCN(Cc1ccco1)C(=O)c1cc2c(s1)-c1c(C)cccc1OC2,0.77
CCc1cccc(NC(=O)Cn2c(C(=O)OC)cc3sc(Cl)cc32)c1,-3
CCC(C)CN1CCOC2(CCN(C(=O)c3nsnc3C)CC2)CC1=O (stereo not drawn),0
CCCN1C(=O)C(Cc2nc3ccccc3c(=O)n2CC)c2ccccc21 (stereo not drawn),-1.8
Cc1ccc2oc(-c3cc(NC(=O)Cc4ccccc4)ccc3Cl)nc2c1,-1.2
COc1cc(C)c(C(C)C)cc1S(=O)(=O)N1CCC(O)C(C(=O)O)C1 (stereo not drawn),-1.1
Cc1[nH]c2c(C)ccc(C)c2c1CC(=O)NC1CCCCC1O (stereo not drawn),0.31
CCCSc1ncc(Cl)c(C(=O)N(Cc2ccccc2)c2ccc(OC)cc2)n1,1.5
Cc1ccc(O)c(NC(=O)CCS(=O)(=O)c2nc(-c3ccc4c(c3)OCO4)cc(C(F)(F)F)n2)c1,-2.4
CCn1ncc(NC(=O)Cn2ncc3cc(-c4cccc(OC)c4)ccc32)n1,-1.1
COc1ccc(CCNC(=O)Cc2c(C)c3cc4c(C(C)(C)C)coc4c(C)c3oc2=O)cc1OC,-2.1
O=C(CC1Oc2ccccc2NC1=O)NCc1ccc(F)cc1 (stereo not drawn),-1.2
COc1ccc(N2CCN(C3(c4ccccc4)C(=O)c4ccccc4C3=O)CC2)cc1,1.4
COc1ccc(-c2cc(C(F)(F)F)nc(NCc3ccc(F)cc3)n2)cc1,-0.36
O=C(Nc1c(-c2ccccc2)nc2ccccn12)c1ccc(Br)cc1,-1.4
COc1ccc(-c2nc(CS(=O)CC(=O)NCc3ccccc3Cl)c(C)o2)cc1OC (stereo not drawn),-0.9
O=C(CSc1nc2ccccc2n1Cc1c(F)cccc1Cl)N1CCN(c2ccc(F)cc2)CC1,-0.46
CCc1ccc2oc(-c3ccc(C)c(NC(=O)/C=C/c4ccco4)c3)nc2c1,1.1
CCOC(=O)C(=O)Nc1c(C(=O)Nc2cccc(F)c2)oc2ccccc12,0.34
COc1ccc(C(=O)N(Cc2ccc(N(C)C)cc2)Cc2ccco2)cc1Cl,-0.14
COc1cccc(-n2c(=O)c3c(C)c(C)sc3n(CC(=O)Nc3ccccc3OC)c2=O)c1,-0.24
COc1ccc(CCNC(=O)CCc2c(C)nc3c(c(C)nn3-c3ccc(C)c(C)c3)c2C)c(OC)c1OC,-0.82
CC(=O)N1CCC(N2CCCn3nc(CCC(=O)NC4CC4)cc3C2)CC1,0.42
CCOC(=O)c1cnc2c(C)c(Cl)ccc2c1NCCc1ccc(OC)c(OC)c1,1.3
CC(=O)Nc1ccc(C)cc1NC(=O)c1csc(-c2ncccn2)n1,-3.1
Cc1nc(C2CCCN(c3cc(C(=O)N4CCCC4)ccn3)C2)cc(=O)[nH]1 (stereo not drawn),-0.49
O=C(CCCN1CCCC1=O)NC1CCOCC1Oc1ccc(CO)cc1 (stereo not drawn),0.92
CO[C@@]1(NC(=O)CSCC#N)C(=O)N2C(C(=O)O)=C(CSc3nnnn3C)CSC21 (stereo partly drawn),-1
Cc1ccc2oc3c(c(=O)c2c1)C(c1ccc(O)cc1)N(CCCN(C)C)C3=O (stereo not drawn),-1.6
Cc1ccc(-n2c(=O)c3c4c(sc3n(Cc3ccccc3C)c2=O)CCC4)cc1C,0.07
CNC(=O)c1cccc(CNC(=O)N(CCN(C)C)Cc2ccc(C)cc2)c1,-0.6
Cc1cccc2nc(-c3ccco3)c(Nc3ccc4c(c3)OCO4)n12,-1.3
CCCN1Cc2cccc(C(=O)Nc3ccc(C(C)=O)cc3)c2C1=O,-0.17
CCOc1ccccc1C(=O)N1CCC2(CC1)Nc1ccccc1NC2=O,-1

# The listing continues.
SMILES,fixLJ activator
O=C(CSC1=Nc2ccccc2C2=NC(CCC(=O)NC3CCCCC3)C(=O)N12)Nc1cccc(Cl)c1 (stereo not drawn),-0.43
CC(=O)N1c2c(cc(Br)cc2S(=O)(=O)NCc2ccccc2Cl)CC1C (stereo not drawn),-1.6
COc1ccc(CNC(=O)CN(c2ccccc2)S(=O)(=O)N(C)C)cc1,-0.66
CN1CC[C@]2(C(=O)NCCO)CCCN(C(=O)c3ccc(CO)cc3)[C@@H]2C1,1.1
